Compound activity from PubChem.
gsp antag: gsp mutant antagonism. gsp-mutant cells, cAMP HTRF, 30 min; control for the full effect not named in the record. Potency, µM (titrated, usually from 76.9 µM), without a hit: at the top dose activity change, negative = inhibition, hits mostly inhibitors. hit rate 0.4% among 340,000; active = falling curve of any shape with a large fitted effect; inconclusive = falling curve, mostly with a smaller effect; inactive = flat or rising curve; cell line not stated here;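 also: intracellular cAMP measured with PDE inhibitor Ro 20-1724 present during compound exposure; potency is read from the fitted curve at half-maximal effect; % is scaled to controls: 0 for no effect and ±100 for the full control effect; nearly all actives have a fitted effect of over 65% in size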
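Cells in G418 medium, seeded 16-24 h, 37C; buffer exchange to DPBS + 1 mM CaCl2, 0.5 mM MgCl2, 0.05% BSA; cpds in DMSO + […] (300 uM stock), 30 min 37C; HTRF cAMP detection.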
TRPV1 PAM: enhances activation of the human vanilloid receptor TRPV1 | AID 540277 | TRPV1-expressing cells, Fluo-8 calcium influx, capsaicin EC20 potentiation; host cell line not named in the record; control for the full effect not named in the record | hit rate 0.02% among 320,000 | potentiation, % at 8.33 µM; active means potentiation above 80%; inconclusive means 30% to 80%; inactive means below 30%; also: 0% is about no effect
Target sequence (Q8NER1 whole entry, looked up): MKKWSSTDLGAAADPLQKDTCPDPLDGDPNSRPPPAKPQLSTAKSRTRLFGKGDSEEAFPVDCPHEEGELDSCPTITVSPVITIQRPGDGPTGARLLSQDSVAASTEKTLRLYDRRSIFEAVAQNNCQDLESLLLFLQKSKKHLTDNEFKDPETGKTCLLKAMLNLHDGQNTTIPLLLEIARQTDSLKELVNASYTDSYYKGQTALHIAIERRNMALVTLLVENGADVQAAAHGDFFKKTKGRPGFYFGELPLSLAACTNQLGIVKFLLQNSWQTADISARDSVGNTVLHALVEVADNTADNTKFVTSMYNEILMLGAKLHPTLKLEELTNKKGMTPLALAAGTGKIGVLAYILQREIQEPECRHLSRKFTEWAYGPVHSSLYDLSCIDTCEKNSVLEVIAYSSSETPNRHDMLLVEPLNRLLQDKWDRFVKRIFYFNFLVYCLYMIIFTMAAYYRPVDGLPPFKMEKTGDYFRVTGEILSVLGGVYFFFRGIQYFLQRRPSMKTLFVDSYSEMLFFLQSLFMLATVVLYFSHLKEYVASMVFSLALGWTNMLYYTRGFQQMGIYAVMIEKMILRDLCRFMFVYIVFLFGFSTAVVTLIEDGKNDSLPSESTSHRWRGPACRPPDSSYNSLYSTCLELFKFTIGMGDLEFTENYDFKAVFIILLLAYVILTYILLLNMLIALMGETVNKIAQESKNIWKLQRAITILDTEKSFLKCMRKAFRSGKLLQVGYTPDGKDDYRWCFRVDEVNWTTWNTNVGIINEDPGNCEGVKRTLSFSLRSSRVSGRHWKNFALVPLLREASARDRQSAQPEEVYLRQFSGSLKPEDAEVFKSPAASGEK
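Fluo-8 calcium influx in TRPV1-expressing cells, kinetic read (ex 480/em 520 nm). Compound added and read 3 min for agonist activity, followed by capsaicin at EC20 final and 2 min further read for enhancement.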
Menin-MLL FL inh: inhibitors of human menin-MLL interaction, wild-type MLL peptide; Fluorescence polarization, fluorescein-MLL peptide displacement from menin; FP activity change, % at 61.4 µM; 290,000 tested, under 10 active; inconclusive = falling polarisation curve, or a change in total fluorescence; inactive = total fluorescence flat and polarisation flat or rising; no compound was filed as active; the % refers to the polarisation; negative = inhibition;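 also: % of control where 0% means no effect; inhibitors lower the polarisation; unlabelled MLL peptide was the positive control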
ClpP mod: qHTS Assay for Activators of ClpP; Potency, µM (series often up to 57.5 µM), without a hit: top-dose activity change, negative = active; AID 651965, 2013; hit rate 1.9% among 340,000; purified B. subtilis ClpP, FRET peptide cleavage, 20 min; ATP-dependent Clp protease proteolytic subunit (Bacillus subtilis (strain 168)), P80244; active = well fitted falling curve with a large enough effect; inconclusive = small, poorly fitted or top-dose-only effect; inactive = no such curve, though single readings can be large or run the other way; also: potency is read from the fitted curve at half-maximal effect; the source files actives as falling curves though it sought activators and does not explain the sign; nearly all actives have a fitted effect of over 65% in size; many hits overshoot -100%
Target sequence (P80244 whole entry, looked up): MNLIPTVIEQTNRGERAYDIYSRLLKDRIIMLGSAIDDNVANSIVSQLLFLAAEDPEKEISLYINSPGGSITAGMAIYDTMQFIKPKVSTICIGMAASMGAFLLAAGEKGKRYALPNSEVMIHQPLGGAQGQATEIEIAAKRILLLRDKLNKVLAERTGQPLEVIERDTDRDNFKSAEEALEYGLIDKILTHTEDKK
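ClpP 10 microg/mL final, pH 8 Tris/KCl buffer with BSA, glycerol, Tween-20; compound pinned in; FRET-FV substrate; RT 20 min; Ex320/Em430; ΔFRET vs ADEP 5.8 microM, DMSO, no enzyme.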
TRPML1 blocker: inhibitors of human TRPML1 channel; AID 624415; TRPML1-inducible cells, Ca2+ dye fluorescence, FDSS; stronger effect = lower value; inhibition of EC80 agonist-evoked calcium signal; Q9GZU1; activity change, negative = inhibition, % (no concentration beside the values); hit rate 0.02% among 390,000; in the data active means activity change below about -50%; inconclusive means about -30% to -50%; inactive means above about -30%;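 also: stimulus is agonist 54-4 at its EC80 concentration; % is scaled to controls: 0 for no effect and ±100 for the full control effect; compound concentration not given in the record; the text of the record puts the active cut at -80%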
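TRPML1-DL cells, Tet-induced overnight (~16 h, 37 °C) at 1,500 cells/well, were loaded with Ca8 no-wash dye plus quencher for 45-90 min at room temperature. Compounds were pinned during FDSS kinetic reading; agonist 54-4 at EC80 (4 uM final) then added.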
gsp agonist: agonists of gsp mutant (McCune-Albright syndrome) | Potency, µM (highest dose often 76.9 µM), inactives show at the highest dose activation (cAMP increase), most hits filed as activators | hit rate 0.13% among 340,000 | AID 624287 | gsp mutant cells, cAMP HTRF, 30 min; control for the full effect not named in the record; active = well fitted activation curve with a large enough effect; inconclusive = small, poorly fitted or top-dose-only effect, or another doubt; inactive = no such curve, though single readings can be large or run the other way; cell line not stated here;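 also: phosphodiesterase inhibitor Ro 20-1724 added with compounds to block cAMP breakdown; potency is read from the fitted curve at half-maximal effect; nearly all actives have a fitted effect of over 60% in size; about a fifth of the inactives were tested at one dose only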
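Cells in DMEM/10% FBS with G418 were pretreated with compounds in DMSO plus […] (300 uM stock) for 30 min at 37C. cAMP was measured by HTRF (cAMP-d2 plus anti-cAMP antibody-K) after 30 min at room temperature.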
Sfp PPTase inh: Sfp phosphopantetheinyl transferase inhibition; Q9F4F7; AID 1490; hit rate 3.5% among 310,000; Biochemical Sfp PPTase activity, qHTS; Potency, µM, for inactives: max response, negative = inhibition, actives largely listed as inhibitors; active = well fitted inhibition curve with a large enough effect; inconclusive = small, poorly fitted or top-dose-only effect, or another doubt; inactive = no such curve, though single readings can be large or run the other way;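 also: the enzyme is Sfp with the accession as filed and its product quenches rhodamine fluorescence; potency is read from the fitted curve at half-maximal effect; 0% = enzyme reaction without inhibitor and -100% = no enzyme wells; top concentration of the series not given in the record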
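Fluorescence-quenching assay: 15 nM Sfp-PPTase preincubated 15 min at room temperature with compound, then 5 uM rhodamine-CoA and 12.5 uM BHQ-2-labelled YbbR peptide added. Fluorescence (ex 525/em 598 nm) read at start and after 30 min; difference gives rate.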
Starred values were filed as active, the others as inactive; ? = inconclusive; . = no result given; [ ] = another dose, or the depositor's remark.

SMILES | gsp antag | TRPV1 PAM | Menin-MLL FL inh | ClpP mod | TRPML1 blocker | gsp agonist | Sfp PPTase inh
Cc1ccc(NC(=O)Nc2cccc(F)c2)nc1 | 1% | 2 | 0.0 | -3.4% | . | -14% | 4%
CCCc1c(C(=O)NNc2ccc(C)cc2)cnn1-c1ccccc1 | 1% | . | 2.1 | . | 31 | -1%[15.4 µM] | 11%
CCCCNC(=O)c1onc(CSc2ccc(F)c(F)c2)c1C(=O)NCCCC | -11% | . | . | -0.2% | 10 | -25% | .
O=C(CCCn1c(=S)[nH]c2cc3c(cc2c1=O)OCO3)NCCc1ccc(Cl)cc1 | . | . | . | -3.2% | 5 | ? | .
Cc1cc(O)cc(O[C@H]2OC(CO)[C@H](O)[C@@H](O)[C@H]2O)c1 (stereo partly drawn) | 2% | 0 | 2.4 | -0.4% | 4 | -49%[inhibitor] | 4%
COc1ccc(C2(C)NC(=O)N(CC(=O)Nc3ccc(-c4nc5ccc(C)cc5s4)cc3)C2=O)cc1 (stereo not drawn) | 9% | 12 | ? | . | 6 | 29% | -4%
O=C(Nc1nnc(C2CC2)s1)c1cncc(Br)c1 | -25% | . | . | -0.3% | 24 | -19% | .
CC(C)NC(=O)CN(Cc1ccc(F)cc1)C(=O)CCC(=O)Nc1ccccn1 | 20% | -25 | -0.1 | . | 26 | -5%[15.4 µM] | 26%
CC(=O)c1ccc(NC(=O)c2ccc(CNc3c(N4CCCC4)c(=O)c3=O)cc2)cc1 | -21% | . | 1.7 | -0.1% | -11 | 14% | 18%
COc1ccc(-c2ccc(OC)c(C3C4C=CCC(C)C4C(=O)N3Cc3ccccc3)c2)cc1OC (stereo not drawn) | . | . | 1.3 | . | 5 | . | -13%
COc1cc(NC(=S)NC(=O)c2ccccc2F)ccc1NC(=O)c1ccco1 | -12% | 7 | -1.8 | -10% | 5 | 5% | -51%
Cc1ccc(S(=O)(=O)N2CN(Cc3ccco3)c3nc4ccccc4nc32)cc1 | -9% | 2 | 8.9 | -30% | 2 | -4% | -29%
CC(Sc1n[nH]c(-c2ccccc2F)n1)C(=O)Nc1ccc(S(N)(=O)=O)cc1 (stereo not drawn) | ? | -6 | . | 1.5% | 14 | -53%[inhibitor] | .
Cc1ccnc(NC(=O)c2ccc3c(c2)C(=O)N(CC(C)C)C3=O)c1 | ? | -1 | . | -0.9% | 16 | -4% | 11%
Cc1cccnc1CN1CCN(Cc2nc(Cc3cccc(F)c3)no2)CC1 | 8% | 1 | 0.7 | -2.4% | -3 | 2% | 13%
COc1cc(C(=O)Nc2cc(S(C)(=O)=O)ccc2Cl)ccc1OCC(=O)N1CCOCC1 | 4% | -66 | . | -1.6% | 17 | ? | .
COCCCN1C(=O)/C(=C\c2ccc3c(c2)OCO3)C(C(=O)OC)=C1C | -13% | -36 | -12 | 1.9% | -3 | 14% | 3%
Cc1ccc(S(=O)(=O)N2CCN(C(=O)COC(=O)c3ccc(Br)o3)CC2)c(C)c1 | -11% | 9 | . | -20% | -12 | -20% | .
C/C(=N/NC(=O)c1ccc2c(c1)OCO2)c1ccc(Br)s1 | 1% | -14 | 1.9 | 0.1% | -10 | ? | 0%
O=C1CCCN=C(Nc2ccc(F)c(Cl)c2)S1 | -18% | 9 | 0.5 | . | 11 | 12%[15.4 µM] | 14%
CCOc1ccccc1N(CC(=O)NCCSc1ccccc1)S(C)(=O)=O | -13% | 29 | -0.6 | . | -7 | 2%[15.4 µM] | 17%
NC(=S)NN=C1CCC(C2CCCCC2)CC1 (stereo not drawn) | -5% | . | . | . | -4 | -23% | .
CCc1nc(SCc2ccccc2)n[nH]1 | -8% | 11 | 0.2 | 0.0% | 18 | 18%[15.4 µM] | 6%
Fc1ccc(CNC(=S)NCc2ccc(F)cc2)cc1 | 0% | -3 | 1.5 | . | -12 | 4%[15.4 µM] | 20%
Cc1ccc(SCC(=O)NC(=O)Nc2ccc3c(c2)OCCO3)c(C)c1 | 16% | 8 | 0.3 | 1.4% | -1 | -32%[inhibitor] | 14%
CCC(C)[C@H](NC(=O)C1CC(=O)N(c2ccc3c(c2)OCO3)C1)C(=O)NC1CCCCC1 (stereo partly drawn) | 7% | 5 | ? | 0.1% | 8 | -4% | -12%
Cc1cc(Cn2nnc(-c3ccc(Br)cc3)n2)cc(C)c1O | ? | 8 | . | -2.4% | 15 | -4% | .
Cn1sc(NC(=O)c2cccc(Cl)c2)nc1=O | 28µM* | -17 | -2.7 | -0.8% | -7 | 15% | 6%
CCOC(=O)Cn1c(=N)n(CCOc2ccc3ccccc3c2)c2ccccc21 | 19% | -7 | 2.0 | 0.2% | 10 | -17% | ?
NS(=O)(=O)c1ccc(NC(=O)/C=C/c2cccs2)cc1 | 3% | -20 | 7.2 | . | 2 | 8%[15.4 µM] | 21%
COc1ccc(-n2c(SCc3cn4c(C)cccc4n3)nc3ccccc3c2=O)cc1OC | 6% | 2 | 4.6 | 2.1% | 7 | ? | -1%
NC1=NC(c2ccc([N+](=O)[O-])cc2)N(c2ccc(F)cc2)C(N)=N1 (stereo not drawn) | 17% | . | . | . | -10 | 19% | .
COc1ccc(C(CCNCc2ccc(F)cc2)c2ccc(F)cc2)cc1 (stereo not drawn) | 5% | -24 | -1.2 | -3.1% | 35 | -1% | 56µM*
CC(OC(=O)c1ccc2ncsc2c1)C(=O)Nc1cccc(Cl)c1 (stereo not drawn) | -1% | -2 | . | -1.3% | -16 | 0% | .
COc1ccc(C2SCCN2C(=S)Nc2cccc(Cl)c2)cc1 (stereo not drawn) | 0% | -10 | 0.9 | 1.5% | 4 | -24% | 26%
CC(C)[C@H](NC(=O)[C@@H]1CSC2c3ccccc3C(=O)N21)C(=O)N1CCCCC1 (stereo partly drawn) | -7% | 9 | . | -0.9% | 2 | 5% | 8%
CCOC(=O)C1CCCN(C2=NC(=O)/C(=C/c3ccc(N(C)C)cc3)S2)C1 (stereo not drawn) | ? | -21 | ? | . | 20 | -7% | -12%
CCCc1nc2ccccc2c(=O)n1NC(=O)c1c(O)c2ccccc2[nH]c1=O | 5% | -3 | 0.4 | -16% | 0 | 30% | -3%
C[C@H]1O[C@H](O[C@H]2[C@H](O[C@@H]3CC[C@@]4(C)C(CC[C@]5(C)C4CC=C4[C@@H]6CC(C)(C)CC[C@]6(C(=O)O[C@@H]6O[C@H](CO)[C@@H](O)[C@H](O)[C@H]6O)CC[C@]45C)C3(C)C)O[C@H](C(=O)O)[C@@H](O)[C@@H]2O)[C@@H](O)[C@@H](O)[C@@H]1O (stereo partly drawn) | -4% | 5 | . | 0.1% | -8 | -35%[inhibitor] | .
COc1ccc(-c2nnn(CC(=O)N(Cc3ccc(F)cc3)C(C(=O)NC3CCCC3)c3ccc(F)cc3)n2)cc1 (stereo not drawn) | 0% | . | . | -2.6% | 9 | -3% | .
Cc1ccc2cccc(Oc3nnnn3-c3ccccc3)c2n1 | -14% | 0 | 3.8 | 1.3% | 0 | -3% | 9%
C[C@H](CO)N1C[C@H](C)[C@@H](CN(C)Cc2ccc(-c3ccccc3)cc2)Oc2c(NS(=O)(=O)c3ccc(F)cc3)cccc2C1=O | -24% | . | . | -3.5% | -6 | . | .
CCOc1ccc(NS(=O)(=O)c2ccc(NC(=S)NC(C)=O)cc2)cc1 | -14% | -2 | -1.6 | . | 3 | ? | 6%
N/C(=N\OC(=O)N1CCOCC1)c1ccc(Cl)cc1 | 16% | -4 | 2.2 | -1.0% | -8 | ? | -6%
C=CCNC(=O)/C(=C/c1ccc(Br)cc1)NC(=O)c1ccccc1OC | -10% | 0 | -0.6 | . | 2 | -30%[15.4 µM] | 9%
O=C(O)CCc1ccc(-c2ccc(Br)cc2)n1Cc1ccco1 | -22% | 3 | 7.4 | -9.4% | -5 | -33% | -1%
Clc1ccc(OCc2nnc(-c3ccccc3Br)o2)cc1 | -18% | -25 | 21 | -2.9% | 0 | ? | -7%
O=C(CCC(=O)Nc1ccc(F)cc1)N/N=C/c1ccc(Br)cc1 | 4% | 4 | 4.6 | 0.2% | -19 | -23% | 13%
CCN(CC)c1ccc(NS(=O)(=O)c2ccc(-c3ccc(=O)[nH]n3)o2)c(C)c1 | -3% | -6 | -4.6 | -0.3% | -4 | -23% | ?
O=C(/C=C/c1cccc([N+](=O)[O-])c1)NCC1CCCO1 (stereo not drawn) | 7% | -11 | 7.5 | -1.2% | -13 | -6% | -15%
Continuation.
SMILES | gsp antag | TRPV1 PAM | Menin-MLL FL inh | ClpP mod | TRPML1 blocker | gsp agonist | Sfp PPTase inh
CC1CC(=O)c2ccccc2C1C (stereo not drawn) | 9% | . | . | . | 12 | 13% | .
O=C(CCN1C(=O)COc2ccccc21)NCCCN1CCN(c2ccccc2F)CC1 | 0% | 7 | 2.1 | -0.9% | -5 | -3% | 19%
Cc1sc2nc(C)n(/N=C/c3ccc(O)cc3O)c(=O)c2c1C | -9% | -9 | -4.5 | -9.1% | 5 | -33%[inhibitor] | 9%
O=C(Nc1nccc(-c2cccs2)n1)c1cccs1 | 7% | 6 | 2.3 | -6.1% | 0 | -4% | 10%
Cc1ccc(S(=O)(=O)N(C(=O)c2ccncc2)c2ccc3oc4c(c3c2)CCCC4)cc1[N+](=O)[O-] | -11% | -34 | 2.3 | 0.6% | -8 | 4%[15.4 µM] | -12%
CC(C)C[C@@H](CN1CCCC1CN1C(=S)NC[C@@H]1Cc1ccc(O)cc1)N1C[C@H](Cc2ccc(O)cc2)N(CCc2ccccc2)C1=S (stereo partly drawn) | -2% | . | . | -4.5% | -3 | . | .
COc1ccc(NC(=O)CCN2C(=O)NC3(CCCC3)C2=O)cc1Cl | 0% | 0 | . | -2.2% | 0 | 21% | .
Cc1ncc([N+](=O)[O-])n1CC(=O)NC1CCCCC1 | 4% | 0 | -0.8 | -0.4% | -13 | -22% | 19%
Cc1c(C(=O)Nc2ccccc2)oc2c1C(=O)CC(C)(C)C2 | -12% | 5 | 4.9 | 0.5% | -21 | -27% | -22%

Hits appear at their usual frequency. Share with any hit: about 4.9%.
